TRPV1 potentiator = human TRPV1 potentiation. Q8NER1. TRPV1-expressing cells, Fluo-8 calcium influx, capsaicin EC20 potentiation; host cell line not named in the record; control for the full effect not named in the record. potentiation, % at 8.33 µM. 320,000 compounds, 0.02% hits; active means potentiation above 80%; inconclusive means 30% to 80%; inactive means below 30%; also: 0% is about no effect
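Cells expressing TRPV1 were dye-loaded with Fluo-8 and read kinetically: 10 s baseline, 3 min after compound (agonist portion), then 2 min after EC20 capsaicin (allosteric enhancer portion). Calcium-bound dye fluorescence at 480/520 nm.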
gsp agonist = activates gsp, the McCune-Albright syndrome mutation; Potency, µM (titrated, usually from 76.9 µM), for the others: at the highest dose activation (cAMP increase), most hits filed as activators; 340,000 compounds, 0.13% hits; gsp mutant cells, cAMP HTRF, 30 min; control for the full effect not named in the record; active = well fitted activation curve with a large enough effect; inconclusive = small, poorly fitted or top-dose-only effect, or another doubt; inactive = no such curve, though single readings can be large or run the other way; cell line not stated here;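 also: phosphodiesterase inhibitor Ro 20-1724 added with compounds to block cAMP breakdown; potency is read from the fitted curve at half-maximal effect; nearly all actives have a fitted effect of over 60% in size; about a fifth of the inactives were tested at one dose only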
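Cells in DMEM/10% FBS with G418 were pretreated with compounds in DMSO plus […] (300 uM stock) for 30 min at 37C. cAMP was measured by HTRF (cAMP-d2 plus anti-cAMP antibody-K) after 30 min at room temperature.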
Sfp PPTase inh = Sfp phosphopantetheinyl transferase inhibition. Q9F4F7. Biochemical Sfp PPTase activity, qHTS. Potency, µM, without a hit: max response, negative = inhibition, most hits filed as inhibitors. 310,000 compounds, 3.5% hits; active = well fitted inhibition curve with a large enough effect; inconclusive = small, poorly fitted or top-dose-only effect, or another doubt; inactive = no such curve, though single readings can be large or run the other way;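 also: the enzyme is Sfp with the accession as filed and its product quenches rhodamine fluorescence; potency is read from the fitted curve at half-maximal effect; 0% = enzyme reaction without inhibitor and -100% = no enzyme wells; top concentration of the series not given in the record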
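Sfp 15 nM + cpd, 15 min RT; start w/ rhodamine-CoA 5 uM, BHQ-2-YbbR 12.5 uM (final); 50 mM Hepes pH 7.6, 10 mM MgCl2, 0.01% NP-40, 0.01% BSA; read 525/598 nm at 0 and 30 min.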
gsp antagonist = gsp mutant antagonism | gsp-mutant cells, cAMP HTRF, 30 min; control for the full effect not named in the record | Potency, µM (doses to about 76.9 µM), for inactives: at the top dose activity change, negative = inhibition, most hits filed as inhibitors | 340,000 compounds, 0.4% hits | AID 624288; active = falling curve of any shape with a large fitted effect; inconclusive = falling curve, mostly with a smaller effect; inactive = flat or rising curve; cell line not stated here;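 also: intracellular cAMP measured with PDE inhibitor Ro 20-1724 present during compound exposure; potency is read from the fitted curve at half-maximal effect; % is scaled to controls: 0 for no effect and ±100 for the full control effect; nearly all actives have a fitted effect of over 65% in size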
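G418-selected cells were plated in DMEM/10% FBS for 16-24 h at 37C, then treated with compounds plus the PDE inhibitor […] (300 uM solution added) for 30 min at 37C. Intracellular cAMP was measured by HTRF after 30 min lysis at room temperature.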
ClpP mod = qHTS Assay for Activators of ClpP; AID 651965, 2013; 340,000 compounds, 1.9% hits; Potency, µM (doses to about 57.5 µM), for the others: at the top dose activity change, negative = active; purified B. subtilis ClpP, FRET peptide cleavage, 20 min; ATP-dependent Clp protease proteolytic subunit (Bacillus subtilis (strain 168)), P80244; active = well fitted falling curve with a large enough effect; inconclusive = small, poorly fitted or top-dose-only effect; inactive = no such curve, though single readings can be large or run the other way; also: potency is read from the fitted curve at half-maximal effect; the source files actives as falling curves though it sought activators and does not explain the sign; nearly all actives have a fitted effect of over 65% in size; many hits overshoot -100%
Target sequence (P80244 whole entry, looked up): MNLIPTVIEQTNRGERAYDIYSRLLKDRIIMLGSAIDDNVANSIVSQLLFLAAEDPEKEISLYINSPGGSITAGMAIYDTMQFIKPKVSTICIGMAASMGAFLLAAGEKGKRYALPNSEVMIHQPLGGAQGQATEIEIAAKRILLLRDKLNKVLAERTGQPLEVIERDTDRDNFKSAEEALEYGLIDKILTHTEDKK
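FRET quenching reversal measured ClpP activation: 10 microg/mL B. subtilis ClpP at pH 8 with the FRET-FV decapeptide, read at 430 nm after 320 nm excitation. The 20-min minus 0-min signal was scaled between DMSO/no-enzyme wells and ADEP (5.8 microM final).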
Menin MLL FP FL = displaces fluorescein MLL peptide from human menin; Fluorescence polarization, fluorescein-MLL peptide displacement from menin; FP activity change, % at 61.4 µM; 290,000 tested, under 10 active; AID 1766; inconclusive = falling polarisation curve, or a change in total fluorescence; inactive = total fluorescence flat and polarisation flat or rising; no compound was filed as active; the % refers to the polarisation; negative = inhibition;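 also: % of control where 0% means no effect; inhibitors lower the polarisation; unlabelled MLL peptide was the positive control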
TRPML1 inh = blocks the human TRPML1 channel | Q9GZU1 | TRPML1-inducible cells, Ca2+ dye fluorescence, FDSS; hits give low values; inhibition of EC80 agonist-evoked calcium signal | activity change, negative = inhibition, % (concentration not given with the values) | 390,000 compounds, 0.02% hits; in the data active means activity change below about -50%; inconclusive means about -30% to -50%; inactive means above about -30%;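 also: stimulus is agonist 54-4 at its EC80 concentration; % is scaled to controls: 0 for no effect and ±100 for the full control effect; the text of the record puts the active cut at -80%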
Target sequence (Q9GZU1 whole entry, looked up): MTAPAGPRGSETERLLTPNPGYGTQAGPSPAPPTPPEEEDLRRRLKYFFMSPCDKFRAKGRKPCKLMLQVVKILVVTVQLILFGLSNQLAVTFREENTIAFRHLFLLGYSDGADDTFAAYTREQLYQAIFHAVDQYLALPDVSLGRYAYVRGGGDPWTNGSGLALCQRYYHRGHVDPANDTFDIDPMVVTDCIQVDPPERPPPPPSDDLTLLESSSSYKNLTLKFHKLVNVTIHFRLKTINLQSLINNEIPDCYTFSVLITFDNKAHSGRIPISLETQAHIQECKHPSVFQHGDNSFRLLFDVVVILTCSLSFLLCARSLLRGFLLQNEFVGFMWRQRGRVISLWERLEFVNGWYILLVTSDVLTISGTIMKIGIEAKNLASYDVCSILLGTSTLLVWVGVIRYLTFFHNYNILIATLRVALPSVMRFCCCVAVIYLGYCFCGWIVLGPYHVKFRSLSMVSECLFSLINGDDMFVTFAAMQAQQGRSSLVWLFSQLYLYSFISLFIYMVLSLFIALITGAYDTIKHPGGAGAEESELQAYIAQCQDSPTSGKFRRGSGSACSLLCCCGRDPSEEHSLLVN
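TRPML1-DL cells, Tet-induced overnight (~16 h, 37 °C) at 1,500 cells/well, were loaded with Ca8 no-wash dye plus quencher for 45-90 min at room temperature. Compounds were pinned during FDSS kinetic reading; agonist 54-4 at EC80 (4 uM final) then added.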
* = called active by the depositor; ? = inconclusive; nt = no result given; & = joins results of further samples; [ ] = another dose, or the depositor's remark.

mol | Sfp PPTase inh | ClpP mod | Menin MLL FP FL | TRPML1 inh | gsp agonist | gsp antagonist | TRPV1 potentiator
COc1ccc(OC)c(S(=O)(=O)N2CCN(Cc3ccccc3)CC2)c1 | 8.0% | 0.2% | -3.0 | nt | -48.8%[inhibitor] | -1.5% | -7.7
CC/C(=N\O)c1c(O)c2c(n(-c3ccccc3)c1=O)CCCC2 | -6.3% | -2.4% | 0.7 | 32.4 | -15.4% | -18.6% | 7.8
CN(Cc1ccccc1)c1ccc(C(CC(N)=O)NC(=O)c2ccccc2)cc1[N+](=O)[O-] (configuration not stated) | -2.8% | -0.2% | 3.8 | -5.4 | -9.0% | 1.3% | -7.0
Fc1cccc(/C=N/N=C/c2cccc(F)c2)c1 | 25.0% | nt | -3.3&1.4 | 3.9 | 3.4%[15.4 µM] | 9.2% | 12.7
Nc1nnc(SCC(=O)Nc2cccc(S(=O)(=O)N3CCOCC3)c2)s1 | nt | -5.9% | nt | -9.4 | 14.5%[15.4 µM] | 15.4% | 7.9
Cc1ccccc1C(=O)Nc1ccc(C(=O)N/N=C/c2ccccn2)cc1 | -10.5% | nt | -2.8 | -3.5 | ? | 2.4% | 1.5
Clc1ccc(OCCCc2nc(-c3ccncc3)no2)c(Cl)c1 | -22.4% | -5.8% | 5.7 | 5.2 | -18.0% | -15.5% | 8.8
COc1cc2ccccc2cc1C(=O)N/N=C/c1cccnc1 | 16.1% | -14.8% | 7.5 | 6.3 | -4.9% | -5.2% | -10.4
Cc1cc(C)c(S(=O)(=O)Nc2ccc3[nH]c(=O)[nH]c3c2)c(C)c1 | 12.2% | nt | 5.1 | -2.8 | -3.8% | 3.6% | 26.2
O=C(CN1C(=O)NC2(CCCC2)C1=O)Nc1ccc(OC(F)(F)F)cc1 | 10.1% | nt | 6.3 | -5.4 | -4.5%[15.4 µM] | 6.0% | -21.1
COc1ccc(Br)cc1C1CC(=O)N2CN(Cc3ccccc3)CSC2=C1C#N (configuration not stated) | 2.24µM* | -4.0% | 2.8 | -2.1 | -62.6%[inhibitor] | -0.1% | nt
O=C(O/N=C(\c1ccccc1)c1ccccn1)c1cccc2ccccc12 | ? | -1.1% | 4.7 | 5.3 | ? | -0.3% | 4.7
Cc1ccc(NC(CNS(=O)(=O)c2ccc(Cl)cc2)c2ccccc2)cc1 (configuration not stated) | 11.6% | 2.6%&-3.0% | -0.3 | 7.4&-11.4 | 12.8% | -13.1% | 11.8
CC(=O)c1ccc(OCC(O)CN2CCCC(C)C2)cc1 (configuration not stated) | 17.1% | 1.8% | -0.7 | -3.1 | -9.7% | -1.3% | nt
COc1ccc(/C(N)=N/OC(=O)CCCN2C(=O)c3ccccc3C2=O)cc1OC | 15.0% | nt | -0.8 | -17.0 | -1.2%[15.4 µM] | 7.5% | 0.8
Cc1nc2sc3c(NCc4ccco4)ncnc3c2c2c1COC(C)(C)C2 | 7.2% | -27.8% | 4.0 | -9.8 | 16.5% | 21.6% | 13.4
Cc1cc(C)c2c(CN3CCN(CCO)CC3)cc(=O)oc2c1 | 10.5% | -0.7% | 1.6 | -6.5 | ? | 5.5% | 4.5
Cc1ccc(S(=O)(=O)CC(=O)Nc2nc(C(C)(C)C)cs2)cc1 | 9.1% | nt | -4.3 | 3.0 | -0.1%[15.4 µM] | -10.6% | -13.4
CC1(C)CN(c2cccc(Br)c2)C1=O | -3.9% | nt | 4.9 | 15.5 | 4.6%[15.4 µM] | 10.2% | -9.9
Nc1nnc(SCc2coc(-c3ccc(Cl)cc3)n2)s1 | 11.5% | -1.3% | -5.1 | -0.2 | -8.7% | -2.9% | -3.3
COc1ccccc1N1CCN(/N=C/c2cc(OC)c(O)c(OC)c2)CC1 | 39.8µM* | -2.8% | 8.6 | 18.8 | -1.5% | -0.6% | 1.0
CCOCCCn1cnc2c(c1=O)c1nc3ccccc3nc1n2-c1ccccc1 | 20.2% | -15.4% | 2.1 | 8.4 | -5.5% | 0.0% | 8.3
O=C(Cn1c(=O)[nH]c2ccccc2c1=O)Nc1ccc2c(c1)OCO2 | 6.2% | -8.0% | 8.4 | 41.9 | -3.1% | -2.0% | 1.1
COc1ccc(C(C(=O)NCC2CCCO2)N(C(=O)c2snc(C(N)=O)c2N)c2ccccc2)cc1OC (configuration not stated) | 11.0% | -1.0% | -5.9 | 24.0 | -5.8%[15.4 µM] | 3.2% | 22.2
Cc1ccc2c(c1)OC(=O)CC2c1ccccc1 (configuration not stated) | 4.5% | -1.1% | 0.3 | -10.2 | ? | -3.9% | 1.6
Cc1noc(NS(=O)(=O)c2ccc(NC(=O)c3cc4ccccc4o3)cc2)c1C | nt | -1.2% | nt | -19.1 | 8.7%[15.4 µM] | -7.8% | nt
O=S(=O)(NCCS(=O)(=O)N1CCN(c2ccc(F)cc2)CC1)c1ccccc1 | nt | 0.6% | nt | 7.9 | -18.0% | nt | nt
O=C(CN1CCC(C(=O)c2ccc(F)cc2)CC1)Nc1ccccc1Cl | -6.0% | nt | -5.0 | -12.8 | -5.6%[15.4 µM] | -9.7% | -12.2
CC(OC(=O)c1ccc(Cl)cc1O)C(=O)NCCC1=CCCCC1 (configuration not stated) | nt | 1.1% | nt | 8.4 | -2.2%[15.4 µM] | -4.8% | nt
Cc1cc(C(=O)NC2CCCc3c2cnn3-c2cccc(C)c2C)no1 (configuration not stated) | 6.5% | 1.3% | -1.9 | 8.2 | -4.2% | -11.8% | -15.4
CSCC(=O)N1CCCC(C(=O)c2cc(F)ccc2F)C1 (configuration not stated) | 4.9% | nt | 0.0 | 7.6 | -0.9%[15.4 µM] | 1.2% | -7.6
C=CCC(Nc1ccccc1)C12C=CC(O1)C(C(=O)OC)=C2C(=O)OC (configuration not stated) | -0.2% | 0.4% | 5.8 | 2.7 | 22.3% | 16.0% | -11.2
Cc1cccc(C(=O)Nc2cccc(-c3ccc4nncn4n3)c2)c1 | -4.7% | nt | 0.5 | 17.6 | 0.7% | -10.8% | -39.4
O=C(O)C1C2CCCCC2=C2CCCCC2C1C(=O)Nc1nccs1 (configuration not stated) | nt | -4.1% | nt | -10.2 | 13.1% | 3.9% | nt
O=C(COC(=O)c1ccccc1O)NCc1ccccc1Cl | nt | 4.0% | nt | -3.3 | ? | 9.1% | nt
O=C(NCc1cccs1)C1CCC(CNS(=O)(=O)c2cccc3nsnc23)CC1 (configuration not stated) | -11.8% | -5.3% | 1.0 | -13.6 | -211.6%[inhibitor] | -26.5% | ?
CCOC(=O)Cc1c(C)nc2c(-c3ccccc3)c(C)[nH]n2c1=O | -6.1% | 28.2µM* | 6.2 | -3.2 | ? | -2.8% | -9.5
CC(C)CN1CCC(=O)N([C@H](CSc2ccc(Br)cc2)Cc2ccccc2)CC1 | 0.4% | -2.3% | 1.9 | 94.2 | nt | -11.7% | -15.1
CC(=O)O/N=C/c1c(C)c(C=O)n2ccccc12 | 8.8% | -4.7% | -1.1 | 5.5 | -15.7% | 1.7% | 6.2
Cc1nc(SCC(=O)N2CCC(Cc3ccccc3)CC2)[nH]c(=O)c1C | nt | -1.3% | nt | -4.0 | 0.2% | -3.1% | 0.6
CNC(=O)N(O)C1N(/N=C/c2ccccc2O)C(=S)SC1(C)C (configuration not stated) | 44.7µM* | nt | 0.1 | 12.3 | 13.3%[15.4 µM] | 0.3% | 4.5
COC(=O)c1ccc(N2CCOCC2)c(NC(=O)c2ccc3c(c2)OCO3)c1 | 5.5% | nt | nt | 0.3 | 7.7%[15.4 µM] | -9.0% | -0.7
CCOc1ccc(C(=O)NCc2cccs2)cc1 | 10.0% | -1.5% | 2.3 | 11.0 | -2.0% | -1.3% | -0.5
Cc1ccc(S(=O)(=O)N2CCCC2)cc1C(=O)NCc1ccccn1 | 7.8% | -4.9% | nt | -3.0 | 5.5% | 0.5% | 1.3
O=C(CSc1nc2ncccc2[nH]1)NC1CCCC1 | ? | -0.8% | 0.0 | -10.9 | ? | 4.9% | 19.2
CCOC(=O)C1(Cc2ccccc2)CCCN(Cc2ccccn2)C1 (configuration not stated) | 8.3% | nt | -0.1 | 7.5 | -69.1%[inhibitor] | 5.0% | 1.2
CCOC(=O)c1c(-c2ccccc2)oc2cc(Br)c(O)cc12 | 2.4% | -9.3% | 4.4 | 15.4 | ? | -5.4% | 10.0
CNC(=O)C(=O)NCC(c1cccs1)S(=O)(=O)c1ccc(C)cc1 (configuration not stated) | 5.0% | -1.1% | -1.2 | 30.5 | ? | 13.4% | 4.6
S=C(NCc1cccs1)Nc1ccc(Cl)cc1 | 11.1% | -1.6% | -1.0 | -3.6 | -2.0% | ? | -9.7
CCCNC(=O)N1CCN(C(c2ccccc2)c2ccccc2)CC1 | 6.1% | -0.9% | nt | -11.4 | 15.4% | -10.7% | -13.3

Other records follow.
mol | Sfp PPTase inh | ClpP mod | Menin MLL FP FL | TRPML1 inh | gsp agonist | gsp antagonist | TRPV1 potentiator
CC#CC#Cc1cccc(=O)o1 | 8.9% | 0.6% | 14.9 | -13.7 | ? | 4.8% | -13.4
O=C(O)CC1(C(=O)O)CCCC1 | nt | nt | nt | 28.3 | -17.0% | 10.3% | nt
O=C1C=C(c2cccc(Br)c2)C[C@@H](c2ccc(Cl)cc2)C1 | nt | -2.1% | nt | 62.3 | 13.2% | -2.4% | nt
CCn1c(SC(C)C(=O)Nc2ccc(N3CCOCC3)cc2)nnc1-c1ccco1 (configuration not stated) | nt | nt | nt | -0.8 | -13.1%[15.4 µM] | -10.9% | -3.7
CC(=O)c1cccc(NC(=O)C2CC(=O)N(C3CCCC3)C2)c1 (configuration not stated) | nt | 0.5% | nt | 2.9 | -2.8%[15.4 µM] | -1.6% | nt
COc1cccc(C2/C(=C(\O)c3ccc4c(c3)OCCO4)C(=O)C(=O)N2Cc2cccnc2)c1 (configuration not stated) | 2.7% | nt | nt | -2.6 | ? | 30.6%[activator] | 2.7

Assay outcomes: PubChem BioAssay, National Center for Advancing Translational Sciences (NCATS)
